# T cruzi repl: blocks replication of Trypanosoma cruzi; T. cruzi beta-gal in NIH3T3, luminescence, 90 h; inhibition, % (concentration not given with the values); 300,000 compounds, 1.4% hits;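 active means mean inhibition across valid replicates above about 55%, limit read from the data; inconclusive means mean below that limit but half or more replicates reach it; inactive means mean below it, under half of replicates reach it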;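 further: signal also drops with host cell toxicity which is not excluded here; 0% = plate median of DMSO wells and 100% = zero luminescence signal; higher percent means less beta-gal luminescence so fewer parasites; stock transfer was 50 nL into about 50 µL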
# Calb FLC: affects C. albicans growth with fluconazole; AID 1979; C. albicans CaCi-2 (fluconazole-resistant clinical isolate) + fluconazole, Alamar Blue growth, 48 h; growth inhibition, % (concentration not given with the values); 300,000 compounds, 0.57% hits;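 active means most replicates above 75%; inconclusive means exactly half above 75%; inactive means most below 75%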;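 further: all wells also contain fluconazole at 8 µg/ml as a sub-toxic cotreatment; 0% = median of DMSO wells and 100% = median of geldanamycin control wells; wells of about 8 µL received 7.5 nL stock; the first replicate is given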
# Beta apoptosis: beta cell apoptosis inhibition | INS-1E cytokine-induced death, ATP luminescence, 48 h; percent of positive-control rescue, neutral wells zero | protection from apoptosis, % (no concentration beside the values) | 300,000 compounds, 0.8% hits;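 active means all replicates at 75% or more, or half of them and the mean; inconclusive means half reach 75% but not the mean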;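 further: 0% = cytokine-treated negative control wells and 100% = positive control rescue; higher means more ATP so stronger rescue from cytokine killing; wells of about 40 µL received 100 nL stock; the first replicate is given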
# Bfl-1 A1 inh: inhibitors of the anti-apoptotic protein A1, read as caspase activation; caspase activation, % (concentration not given with the values); 330,000 compounds, 0.066% hits; MEF A1-2A-BIM cells, Caspase-Glo 3/7 luminescence, 3 h; percent of clofoctol response, vehicle zero;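 active means over half of replicate activation scores above 10%, or exactly half above 10 with the replicate mean above 10; inconclusive means replicate mean below 10 yet half the replicates above 10; inactive means over half of replicates below 10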;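 further: wells of about 30 µL received 50 nL stock; many hits fall short of the cut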
# RanGTP-Impb inh: inhibitors of RanGTP-importin-beta interaction, primary screen, biochemical, FRET, CFP-Ran, YFP-importin-beta, homogeneous. cell-free CFP-Ran/YFP-importin-beta FRET ratio. inhibition, % (test concentration not listed). 300,000 compounds, 1.1% hits. AID 2216;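 active means most replicates above 15%; inconclusive means exactly half above 15%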;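 further: 0% = DMSO wells and 100% = Ran loaded with GDP instead of GTP; wells of about 40 µL received 100 nL stock; the first replicate is given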
# B2AR ag: activates human beta-2 adrenergic receptor causing internalization. P07550. Am2.2-beta2AR cells, FAP receptor internalization, flow cytometry; reference of the scale not given here. response, % (no concentration beside the values). 340,000 compounds, 0.43% hits. AID 504454;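 active means response above a set limit, near 3 SD of response in nonfluorescent compounds, cut at about 42% in these data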;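 further: stock transfer was 100 nL into about 11 µL; a reference agonist was the positive control; negative values mostly stem from fluorescent compounds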
# UCH37 inh: blocks the human deubiquitinase UCH37 | Q9Y5K5 | purified proteasome/UCH37, Ub-AMC cleavage fluorescence | inhibition, % (test concentration not listed) | 330,000 compounds, 0.33% hits | AID 588478;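 active means mean of two replicates above 20%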;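 further: 0% = compound-free wells with enzyme and 100% = wells lacking proteasome; stock transfer was 100 nL into about 20 µL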
#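 Schedule: 30 min plus 25 min, room temperature / Material: human UCH37 within purified proteasomes / Technique: AMC fluorescence intensity at 355/460 nm / Buffer or medium: pH 7.4 Tris-HCl (50 mM) with ovalbumin, ATP-MgCl2, DTT / Controls: wells without proteasome as full block, compound-free enzyme plus substrate as uninhibited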
# LANA-H2B inh: blocks KSHV LANA binding to histone H2A/H2B; Q9QR71; cell-free LANA-H2A/H2B peptide, fluorescence polarization; inhibition, % (concentration not given with the values); 320,000 compounds, 0.6% hits; AID 2629; in the data active means inhibition mostly above about 10%, no sharp cut-off; inactive means mostly below about 6.7%;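 further: stock transfer was 7.5 nL into about 10 µL; 0% = median of vehicle wells and 100% = median of positive control wells; one replicate is shown; the record names a cut of 25% in any replicate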
# Target sequence (Q9QR71 whole entry, looked up): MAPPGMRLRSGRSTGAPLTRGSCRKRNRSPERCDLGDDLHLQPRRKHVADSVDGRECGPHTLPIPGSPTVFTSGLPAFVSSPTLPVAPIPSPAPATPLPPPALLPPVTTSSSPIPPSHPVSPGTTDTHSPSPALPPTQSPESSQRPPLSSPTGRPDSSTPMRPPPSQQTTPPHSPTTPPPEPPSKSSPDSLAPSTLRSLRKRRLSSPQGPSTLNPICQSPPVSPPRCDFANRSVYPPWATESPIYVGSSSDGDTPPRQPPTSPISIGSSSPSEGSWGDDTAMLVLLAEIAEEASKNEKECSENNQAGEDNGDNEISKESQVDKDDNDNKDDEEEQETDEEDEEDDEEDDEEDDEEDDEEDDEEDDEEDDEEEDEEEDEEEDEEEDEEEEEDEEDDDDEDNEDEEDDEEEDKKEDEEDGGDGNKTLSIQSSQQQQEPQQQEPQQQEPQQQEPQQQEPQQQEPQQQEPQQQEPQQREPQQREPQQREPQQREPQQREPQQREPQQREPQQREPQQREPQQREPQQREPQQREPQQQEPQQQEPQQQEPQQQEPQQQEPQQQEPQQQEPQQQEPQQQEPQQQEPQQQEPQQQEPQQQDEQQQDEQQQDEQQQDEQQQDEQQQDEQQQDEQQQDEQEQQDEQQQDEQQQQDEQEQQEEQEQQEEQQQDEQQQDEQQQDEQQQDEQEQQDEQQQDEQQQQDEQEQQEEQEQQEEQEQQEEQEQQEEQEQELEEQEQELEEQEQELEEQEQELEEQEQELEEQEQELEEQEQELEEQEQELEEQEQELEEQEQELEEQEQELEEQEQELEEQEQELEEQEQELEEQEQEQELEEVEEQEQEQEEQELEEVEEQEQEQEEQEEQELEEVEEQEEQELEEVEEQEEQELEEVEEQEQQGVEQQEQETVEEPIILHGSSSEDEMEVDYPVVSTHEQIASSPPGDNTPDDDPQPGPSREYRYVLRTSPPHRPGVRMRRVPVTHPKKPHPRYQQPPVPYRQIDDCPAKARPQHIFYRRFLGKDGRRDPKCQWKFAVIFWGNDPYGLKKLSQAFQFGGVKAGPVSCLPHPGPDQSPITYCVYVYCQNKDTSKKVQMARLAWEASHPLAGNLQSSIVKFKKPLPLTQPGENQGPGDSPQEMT
# An asterisk follows results filed as active; u = inconclusive; x = not tested or not shown.
SMILES,T cruzi repl,Calb FLC,Beta apoptosis,Bfl-1 A1 inh,RanGTP-Impb inh,B2AR ag,UCH37 inh,LANA-H2B inh
COc1ccc(NS(=O)(=O)c2cc(NC(=O)c3nn(C)c(=O)c4ccccc34)ccc2OC)cc1,10,-20,8,-0.6,2.5,12,2.0,3.2
CC(C)CNS(=O)(=O)c1ccc(CCC(=O)N2CCN(c3ccccc3)CC2)cc1,2,-4,2,1.1,u,9,4.8,5.8
Cc1ccc(S(=O)(=O)N2[C@@H](c3ccc(Cl)cc3)C(C(=O)O)=CC[C@H]2c2cccc(Cl)c2)cc1,x,x,-3,-0.6,x,0,6.0,-5.2
COC(=O)c1c(NC(=O)C(C)(C)C)csc1C,-10,15,0,-0.2,6.3,4,2.6,-1.3
O=C(NC1CCCCC1)C1(S(=O)(=O)c2ccc(Cl)cc2)CC1,-5,0,2,-0.2,-0.4,2,0.1,-0.7
Cc1nnc(SCC(=O)NC2CCCc3ccccc32)n1-c1ccccc1 (configuration not stated),5,-30,-9,0.8,-0.2,7,5.3,4.6
CN(CC(=O)Nc1ccc(Cl)cc1)S(=O)(=O)c1cccc2cccnc12,-24,5,x,-0.4,3.8,-8,8.0,0.1
CC(C)C(NC(=O)c1ccc(C(C)(C)C)cc1)C(=O)O (configuration not stated),-9,-6,0,-1.2,-2.0,-2,5.2,0.9
Nc1c(C(=O)OCC(=O)Nc2ccccc2Br)[nH]c(=O)[nH]c1=O,x,x,-5,-0.2,x,4,x,2.9
CC1=C/C(=N\NC(=S)NCc2ccccc2)CC1,69*,0,2,-0.3,-4.3,-2,x,3.5
CN(c1ccccc1C(=O)NC1CC2CCC1C2)S(=O)(=O)c1ccccc1 (configuration not stated),-23,14,1,0.9,8.1,0,3.0,0.7
COc1ccc(CCNC(=O)c2cc(-c3ccccc3OC)on2)cc1OC,-6,-24,-4,-0.1,0.9,3,3.2,4.2
Cc1ccc(NC(=O)CCN2CCC(Cc3ccccc3)CC2)cc1,26,-15,3,-0.1,3.8,-5,0.3,5.0
Cn1c(CN2CCN(C(=O)c3ccccc3Cl)CC2)nc2cc([N+](=O)[O-])ccc21,17,29,2,-0.1,0.3,2,7.6,1.3
O=C(CSc1nc2c(c(=O)n1-c1ccc(Cl)cc1)SCC2)N1CCCC1,12,6,3,0.3,3.5,-12,7.3,0.7
CCOc1ccc(NC(=O)NC2CCOC(C)(C)C2)cc1 (configuration not stated),-1,12,-5,0.4,1.8,-4,1.2,0.2
CCc1ccc(N(C(=O)c2snc(C(N)=O)c2N)C(C(=O)NCCC(C)C)c2c[nH]c3ccccc23)cc1 (configuration not stated),10,-12,4,-0.2,6.2,8,-16,-3.8
O=C(CSc1nc2ccc(Cl)cc2[nH]1)NC1CCCC1,3,-8,-1,0.7,-2.2,7,1.6,-1.1
COCCNC(=O)C(c1ccc(F)cc1)N(CCOC)C(=O)CCC(=O)Nc1nccs1 (configuration not stated),-10,-11,x,1.0,-0.2,-10,1.6,-0.9
COc1cccc(OC)c1C(=O)Nc1cccc(-c2nc3ccccc3[nH]2)c1,7,0,0,0.1,0.2,1,4.1,-4.1
CN(C)CCn1c2c(c(SCC(=O)Nc3ccc4c(c3)OCCO4)nc1=O)CCC2,8,6,-3,-0.1,2.8,5,3.9,1.7
CS(=O)(=O)N1CCC(C(=O)Nc2ccccc2Cl)CC1,-1,0,0,0.7,-3.2,8,4.1,-0.7
COC(=O)c1ccc(C2C(C(=O)Nc3ccc(C)cc3C)=C(C)Nc3ncnn32)cc1 (configuration not stated),-4,5,-4,-0.4,0.6,2,3.2,3.5
Cc1ccc(S(=O)(=O)N(C)C[C@@H]2Oc3ccc(NC(=O)CCC(F)(F)F)cc3CC(=O)N([C@@H](C)CO)C[C@@H]2C)cc1,x,x,0,0.5,x,12,4.8,-2.2
Cc1cc(N2CCN(C)CC2)nc2ccc(NC(=S)N3CCOCC3)cc12,42,11,-2,0.0,1.8,-2,7.3,-9.9
# New compounds follow.
SMILES,T cruzi repl,Calb FLC,Beta apoptosis,Bfl-1 A1 inh,RanGTP-Impb inh,B2AR ag,UCH37 inh,LANA-H2B inh
COc1ccc2cc(C(c3nnnn3C3CCCC3)N3CCc4ccccc4C3)c(=O)[nH]c2c1 (configuration not stated),31,-6,-8,-0.1,1.4,3,-3.3,-1.9
COc1ccc(OC)c(NC(=O)Cn2c(=O)oc3ccccc32)c1,-6,-1,2,0.7,-3.6,3,-0.2,0.4
C/C(=C\C(=O)O)CC(=O)O,-7,-14,-7,0.2,-0.7,-1,5.1,-6.9
COc1ccc(NC(=O)c2cc(-c3ccccc3)nc3c2cnn3C(C)C)c(OC)c1,x,x,9,0.0,x,2,-1.0,-1.4
S=C(NCc1ccco1)Nc1cccc(Cl)c1Cl,5,4,3,0.3,-0.4,5,2.0,-3.4
Cc1ccc(NC(=O)c2cc(-c3ccco3)nc3ccccc23)cc1S(=O)(=O)N1CCOCC1,-13,0,5,0.0,1.7,6,-42,-3.0
COc1c(Br)cc(Br)cc1C(=O)O,-10,0,-2,0.1,0.1,-3,5.2,-0.9
COc1ccc(-c2ccc(C#N)c(SCC(=O)Nc3sc4c(c3C#N)CCC4)n2)cc1OC,10,1,58,-0.3,-0.7,4,-5.2,1.6
COc1ccc(C2C(C#N)=C(N)Oc3c2c(-c2ccccc2)nn3-c2ccccc2)c(OC)c1OC (configuration not stated),9,32,6,-0.4,0.5,-10,-15,x
COC(=O)c1ccc(OCC(O)CN2CCN(C(=O)c3ccco3)CC2)cc1 (configuration not stated),3,4,-2,-0.1,0.3,-2,5.2,-3.7
COc1ccc(Cl)cc1NC(=O)CN(C)C(=O)c1ccc(-n2nc(C)cc2C)cc1,x,x,-3,0.5,x,-1,-1.6,0.9
CC(C)n1nnnc1SCC(=O)NC1CCCC1,4,-18,2,0.3,2.4,3,1.6,-3.5
Cc1ccc(Cl)c(NC(=S)N(CCCN2CCOCC2)Cc2ccco2)c1,-14,16,-9,0.2,-1.2,4,2.0,-0.6
COC(=O)[C@@H](Cc1ccccc1)NC(=O)Cn1cnc2c(SC)nc(N)nc21,x,x,-4,0.9,x,-5,-1.8,0.3
CNC(=S)N(CCCn1ccnc1)Cc1c(F)cccc1Cl,13,-12,4,1.1,-2.0,4,1.7,2.4
O=C(CSc1nc(=O)n(CCCN2CCOCC2)c2c1CCC2)Nc1ccc([N+](=O)[O-])cc1,-4,4,-3,0.2,0.2,-4,9.8,-0.7
COc1cc2c(cc1OC)/C(=C/C(=O)c1cccc([N+](=O)[O-])c1)NCC2,0,-7,14,-0.5,3.2,23,7.1,-1.3
CN(C)c1ccc(C(CNC(=O)c2ccccc2F)c2c[nH]c3ccccc23)cc1 (configuration not stated),21,-5,5,0.5,-2.6,-3,26*,-3.1
CCN(CC(=O)Nc1ccccc1OC)C(=O)C1CCCC1,x,x,-1,-0.2,x,0,2.1,-1.4
COc1ccc(-n2ncc3c(N4CCN(c5cccc(C)c5C)CC4)ncnc32)cc1,13,2,15,0.0,0.7,6,2.7,-3.6
CN1CCN(c2cc(N3CCN(C(=O)c4ccco4)CC3)c3c4c(onc24)-c2ccccc2C3=O)CC1,31,-7,6,-0.9,2.3,19,13,-3.8
CCCCNS(=O)(=O)c1cc(-c2nn(C)c(=O)c3ccccc23)ccc1C,12,-7,9,0.5,2.3,8,1.2,2.9
COc1ccc(OCC(O)CNC(=O)Nc2ccc(Cl)cc2)cc1 (configuration not stated),4,-14,4,-0.8,-2.3,4,3.4,-0.1
CCOc1cc(/C=N/NC(=O)CCc2n[nH]c(=O)[nH]c2=O)ccc1O,1,-5,-4,0.3,-3.4,6,x,-4.2
CCc1nc(N=C(N)N)nc2ccccc12,u,-19,-2,0.5,0.4,x,2.2,7.0
# Further entries.
SMILES,T cruzi repl,Calb FLC,Beta apoptosis,Bfl-1 A1 inh,RanGTP-Impb inh,B2AR ag,UCH37 inh,LANA-H2B inh
Cc1cccc(OC(C)c2ccnc3nc(/N=C/N(C)C)nn23)c1 (configuration not stated),-2,0,-3,0.7,u,-6,x,-2.5
COC(=O)C1=CN(c2ccc(OC)cc2)C=C(C(=O)OC)C1c1cc(OC)c(OC)cc1OC,54,3,-5,0.7,2.3,-8,-62,3.7
COc1ccccc1N1CCN(S(=O)(=O)c2c(C)ccc3nsnc23)CC1,14,4,-4,1.1,-6.0,1,3.0,-2.0
O=C(c1cc([N+](=O)[O-])ccc1N1CCN(S(=O)(=O)c2ccc(Cl)c(Cl)c2)CC1)N1CCOCC1,21,4,-7,0.2,2.2,5,6.6,0.5
CC1CCN(Cc2c(C#N)c3ccccc3n2C)CC1,-3,-4,x,1.3,-1.5,-2,3.3,-0.9
Cn1c(=O)c2c(nc(N3CCN(c4ccc([N+](=O)[O-])cc4)CC3)n2C)n(C)c1=O,10,3,2,0.3,-2.9,13,9.4,-4.4
CCCC1CC(C(=O)NC(C(C)Cl)C2OC(SC)C(O)C(O)C2O)N(C)C1 (configuration not stated),-9,x,4,-0.1,-1.7,-12,-0.6,2.1
O=[N+]([O-])c1ccc(N2CCN(S(=O)(=O)c3ccccc3)CC2)cc1N1CCc2ccccc2C1,15,-9,-1,1.1,1.6,0,6.4,4.2
COc1cc(CNS(=O)(=O)c2ccc3c(c2)CC(C)N3C(C)=O)cc(OC)c1OC (configuration not stated),-50,-3,x,1.1,-0.3,4,0.8,-0.9
O=C(Cc1ccc([N+](=O)[O-])cc1)Nc1ccc2c(c1)C(=O)NC2=O,-9,0,1,-0.6,-3.2,-3,-6.2,3.7
CCOC(=O)N1CCC(N2C(=O)c3ccc(C(=O)O)cc3C2=O)CC1,-2,0,-2,-0.4,0.5,16,3.1,3.1
O=C(OCC1CC(c2ccccc2)=NO1)c1ccc(Cl)cc1 (configuration not stated),-9,6,-11,-0.1,-0.8,1,0.9,-1.2
CS(=O)(=O)c1ccc(C(=O)OCC(=O)Nc2cccc(S(=O)(=O)N3CCCC3)c2)cc1,-6,-2,-3,0.5,-0.7,-3,6.3,-1.7
Nc1nc2n(n1)C(c1cccc(Br)c1)CC(c1ccccc1)N2 (configuration not stated),15,12,-7,-1.0,4.5,8,4.6,1.5
O=C(O)c1n[nH]c2c1CCCCC2,-10,-1,0,0.7,5.1,4,-3.5,-2.4
COc1ccc(-c2csc(NC(=O)c3ccc(OCC(=O)N4CCOCC4)c(OC)c3)n2)cc1,44,-2,67,0.4,2.0,16,-3.5,0.8
C=CCNc1oc(-c2cccs2)nc1S(=O)(=O)c1ccccc1,-18,-6,-4,-0.5,-3.4,-2,-0.5,2.5
CN(C)c1nc(NCc2ccccc2)nc(SCC(N)=O)n1,-5,-2,-3,1.9,-1.9,-11,0.0,4.6
Cc1cccnc1NC(=O)CNC(=O)c1sc2ccccc2c1Cl,x,x,-7,0.0,x,-6,-0.4,0.4
CCCCCCC(=O)N1C/C=C\C(c2ccc(OC)cc2)N(Cc2ccc(F)cc2)C(=O)C1 (configuration not stated),-7,-3,-4,0.3,5.0,-11,3.8,-1.1

# Screening results deposited in PubChem BioAssay by several laboratories.

# No enrichment for hits; overall some 4.3% were active at least once.
